High-throughput results from PubChem BioAssay.
HSV replic up: increases HSV replication in cells | HSV replication augmentation in cells, fold increase | maximum fold increase | 220,000 compounds, 0.005% hits;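 active means peak rise of 1.5-fold or more in the series; tested in PC3 cells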;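 further: first round at 10 µM; read as green reporter fluorescence; hits show the peak of a series up to 25 µM; 1 = signal of infected wells without compound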
RGS16-Gao HTS: RGS16-Galphao interaction regulator (human) | bead-based flow cytometry RGS16-Galphao binding, fluorescence; actives lie on both sides | AID 1441 | binding response (% of control), % at 10 µM | 220,000 compounds, 0.38% hits;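 active means below 25% or above 175%, edge rows of some plates excepted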;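 further: Galphao activated by GDP with aluminum fluoride before binding; 100% = wells without compound and 0% = beads without RGS; some results beyond the cut were filed as inactive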
Target sequence (O15492 whole entry, looked up): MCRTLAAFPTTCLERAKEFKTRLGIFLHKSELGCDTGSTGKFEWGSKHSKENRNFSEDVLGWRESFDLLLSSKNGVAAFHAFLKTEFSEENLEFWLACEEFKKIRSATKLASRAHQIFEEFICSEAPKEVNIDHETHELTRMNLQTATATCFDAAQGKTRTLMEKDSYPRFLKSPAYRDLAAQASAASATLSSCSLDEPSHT
Target sequence (P09471 whole entry, looked up): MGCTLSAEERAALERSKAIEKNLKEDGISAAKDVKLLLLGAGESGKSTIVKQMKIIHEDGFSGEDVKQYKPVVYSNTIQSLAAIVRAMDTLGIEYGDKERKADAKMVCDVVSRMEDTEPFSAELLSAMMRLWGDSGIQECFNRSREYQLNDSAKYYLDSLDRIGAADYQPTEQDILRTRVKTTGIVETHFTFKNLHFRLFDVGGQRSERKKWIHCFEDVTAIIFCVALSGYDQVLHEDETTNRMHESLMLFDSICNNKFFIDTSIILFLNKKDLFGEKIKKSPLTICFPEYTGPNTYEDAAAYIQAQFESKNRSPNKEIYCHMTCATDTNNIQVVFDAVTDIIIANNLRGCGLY
GALR2 agonist: GALR2 (human) receptor agonism; O43603; GALR2-expressing cells, agonist activation read-out; activation, %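 (tested at 5 µM)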; 140,000 compounds, 0.48% hits;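 active means above mean plus 3 SD of all compounds, about 5% in these data, not always enough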;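 further: 0% = vehicle buffer wells and 100% = reference agonist at full effect; tested in CHO reporter cells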
Target sequence (O43603 whole entry, looked up): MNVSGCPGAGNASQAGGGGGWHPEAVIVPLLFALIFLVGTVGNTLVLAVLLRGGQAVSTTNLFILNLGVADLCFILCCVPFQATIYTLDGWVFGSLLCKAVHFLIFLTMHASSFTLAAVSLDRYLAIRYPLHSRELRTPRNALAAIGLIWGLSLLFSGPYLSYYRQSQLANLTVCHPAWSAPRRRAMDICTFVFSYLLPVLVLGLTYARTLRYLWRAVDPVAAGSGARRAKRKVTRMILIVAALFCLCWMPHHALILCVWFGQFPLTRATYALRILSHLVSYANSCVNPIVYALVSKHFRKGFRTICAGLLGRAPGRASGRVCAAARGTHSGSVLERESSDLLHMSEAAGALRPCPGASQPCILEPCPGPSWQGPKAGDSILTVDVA
PKD1 inh: blocks activity of human protein kinase D1; 200,000 compounds, 0.056% hits; inhibition, %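 (about 10 µM by stock and volumes)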; Q15139; AID 797; PKD1 kinase fluorescence polarization assay;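 active means inhibition of 50% or more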;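 further: controls were vehicle for no effect and a reference inhibitor for full effect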
Insulin prom inh: TRM-6 insulin promoter activity inhibition | TRM-6 cells (human fetal islet line), insulin promoter-eGFP reporter, imaging; reporter expression induced with tamoxifen | inhibition, % at 2 µM | 130,000 compounds, 0.9% hits;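 active means inhibition above the mean plus 3 SD, with well images judged a real hit on visual review, cut at about 60% in these data, passing the limit was not always enough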
Insulin prom inh cell count: further read-out of Insulin prom inh, marked with its call; normalized cell count, %; measured here: cell count, toxicity; reference of the scale not given here;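 cells exposed to compound for 48 h; stained nuclei by imaging scaled within each plate; lower means fewer cells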
HSV replic up primary fold: also measured in HSV replic up; calls as there; fold increase; compound at 10 µM; measured here: primary screen fold increase 10 uM; tested in PC3 cells;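 GFP signal in the first replicate; 1 = infected wells without compound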
* = called active by the depositor.

What do the screens show for `N#Cc1c(NC(=O)C2CCCO2)sc2c1CCCCCC2` (configuration not stated)?
HSV replic up: inactive; RGS16-Gao HTS: 98; GALR2 agonist: 0.3; PKD1 inh: -7; Insulin prom inh: 31; Insulin prom inh cell count: 139; HSV replic up primary fold: 0.86

What do the screens show for `COc1ccc(C2c3cc(OC)c(OC)cc3CCN2S(C)(=O)=O)cc1OC` (configuration not stated)?
HSV replic up: inactive; RGS16-Gao HTS: 100; PKD1 inh: -1; Insulin prom inh: 36; Insulin prom inh cell count: 96; HSV replic up primary fold: 1

What do the screens show for `N#CCCN(Cc1cccnc1)C(=O)Nc1ccccc1`?
HSV replic up: inactive; RGS16-Gao HTS: 100; GALR2 agonist: -2.9; PKD1 inh: -2; Insulin prom inh: 48; Insulin prom inh cell count: 135; HSV replic up primary fold: 0.93

How did CNC(=O)COC(=O)c1cccc(S(=O)(=O)N2CCN(c3ccc(F)cc3)CC2)c1 do in these assays?
HSV replic up: inactive; RGS16-Gao HTS: 100; HSV replic up primary fold: 0.73

What do the screens show for `COCCCN(CCCN)Cc1ccco1`?
HSV replic up: inactive; RGS16-Gao HTS: 104; GALR2 agonist: -0.4; PKD1 inh: 6; HSV replic up primary fold: 1.3

How did Cc1cc(C)c2sc(N(CCCN(C)C)C(=O)COc3ccc(Cl)cc3)nc2c1 do in these assays?
HSV replic up: inactive; RGS16-Gao HTS: 102; PKD1 inh: 4; Insulin prom inh: 0; Insulin prom inh cell count: 101; HSV replic up primary fold: 0.79

How did C=CCN(CC(=O)NCc1ccc(OC)cc1)C(=O)c1csnn1 do in these assays?
HSV replic up: inactive; RGS16-Gao HTS: 96; GALR2 agonist: -1.3; PKD1 inh: -4; HSV replic up primary fold: 1.3

How did CC1CC(C)(C)Nc2ccc(N=O)cc21 (configuration not stated) do in these assays?
HSV replic up: inactive; RGS16-Gao HTS: 97; PKD1 inh: -3; Insulin prom inh: -158; Insulin prom inh cell count: 28; HSV replic up primary fold: 0.73

What do the screens show for `COc1ccc(CCn2c(-c3cc([N+](=O)[O-])cc([N+](=O)[O-])c3)nc3nc4ccccc4nc32)cc1OC`?
HSV replic up: inactive; RGS16-Gao HTS: 104; GALR2 agonist: -0.2; PKD1 inh: -5; HSV replic up primary fold: 0.89

How did COc1ccccc1OCCSc1nc2ccc([N+](=O)[O-])cc2s1 do in these assays?
HSV replic up: inactive; RGS16-Gao HTS: 114; GALR2 agonist: -1.5; PKD1 inh: 5; Insulin prom inh: 0; Insulin prom inh cell count: 140; HSV replic up primary fold: 1

How did O=C(Nn1cnc2ccccc2c1=O)c1ccccc1[N+](=O)[O-] do in these assays?
HSV replic up: inactive; RGS16-Gao HTS: 88; PKD1 inh: 3; Insulin prom inh: -33; Insulin prom inh cell count: 86; HSV replic up primary fold: 0.91

What do the screens show for `CCN1CCN(C(=O)c2cc3c(=O)oc4ccc(C)cc4c3s2)CC1`?
RGS16-Gao HTS: 105; PKD1 inh: 2

Results for COc1ccc(S(=O)(=O)N(C)c2ccc(C(=O)N3CCOCC3)cc2)cc1 ?
HSV replic up: inactive; RGS16-Gao HTS: 107; GALR2 agonist: -0.7; PKD1 inh: -3; Insulin prom inh: 16; Insulin prom inh cell count: 123; HSV replic up primary fold: 1

How did CC1SCC(NC(=O)c2ccccc2Cl)CS1 (configuration not stated) do in these assays?
HSV replic up: inactive; RGS16-Gao HTS: 105; HSV replic up primary fold: 1.4

How did Cn1c(SCc2ccccn2)nnc1-c1ccncc1 do in these assays?
HSV replic up: inactive; RGS16-Gao HTS: 100; GALR2 agonist: -1.1; PKD1 inh: 6; Insulin prom inh: -34; Insulin prom inh cell count: 146; HSV replic up primary fold: 1

How did CSc1cccc(NC(=O)CN(C)S(=O)(=O)c2ccc(C)cc2)c1 do in these assays?
HSV replic up: inactive; RGS16-Gao HTS: 94; GALR2 agonist: -2.0; PKD1 inh: 0; Insulin prom inh: 11; Insulin prom inh cell count: 51; HSV replic up primary fold: 0.97

How did CCOc1ccc(NC(=O)CSc2ccc(-c3ccccn3)nn2)cc1 do in these assays?
HSV replic up: inactive; RGS16-Gao HTS: 101; GALR2 agonist: 0.2; PKD1 inh: 4; HSV replic up primary fold: 0.86

What do the screens show for `CCCCOc1ccc(-c2c(C(=O)Nc3ccccc3)c(C)[nH]c(=S)c2C#N)cc1`?
HSV replic up: inactive; RGS16-Gao HTS: 98; PKD1 inh: -3; HSV replic up primary fold: 0.94

What do the screens show for `Oc1[nH]c2ccccc2c1/C=N/c1nccs1`?
RGS16-Gao HTS: 98; GALR2 agonist: -2.9; PKD1 inh: -2; Insulin prom inh: 27; Insulin prom inh cell count: 112

What do the screens show for `CC(=O)Nc1ccc(CN2CCN(C3CCCC3)C(CCO)C2)cc1` (configuration not stated)?
HSV replic up: inactive; RGS16-Gao HTS: 99; PKD1 inh: -1; HSV replic up primary fold: 0.93

How did Cc1ccnc(NS(=O)(=O)c2ccc(NC(=O)C(C)(C)C)cc2)n1 do in these assays?
HSV replic up: inactive; RGS16-Gao HTS: 107; HSV replic up primary fold: 0.89

How did NC(Cc1ccc2nsnc2c1)C(=O)O (configuration not stated) do in these assays?
HSV replic up: inactive; GALR2 agonist: -2.2; PKD1 inh: 6; Insulin prom inh: -38; Insulin prom inh cell count: 121; HSV replic up primary fold: 1.3

What do the screens show for `Clc1cc(Br)ccc1OCCn1ccnc1`?
HSV replic up: inactive; RGS16-Gao HTS: 101; GALR2 agonist: -2.2; PKD1 inh: -1; Insulin prom inh: -23; Insulin prom inh cell count: 125; HSV replic up primary fold: 0.87

Results for O=S1(=O)CCC(NC(=S)NCCNC(=S)NC2CCS(=O)(=O)C2)C1 (configuration not stated) ?
HSV replic up: inactive; RGS16-Gao HTS: 113; GALR2 agonist: -0.8; PKD1 inh: 1; Insulin prom inh: 16; Insulin prom inh cell count: 95; HSV replic up primary fold: 1.2

Among those listed so far, 2 contain a thiophene ring, fused or not:
What do the screens show for `N#Cc1c(NC(=O)C2CCCO2)sc2c1CCCCCC2` (configuration not stated)?
HSV replic up: inactive; RGS16-Gao HTS: 98; GALR2 agonist: 0.3; PKD1 inh: -7; Insulin prom inh: 31; Insulin prom inh cell count: 139; HSV replic up primary fold: 0.86

What do the screens show for `CCN1CCN(C(=O)c2cc3c(=O)oc4ccc(C)cc4c3s2)CC1`?
RGS16-Gao HTS: 105; PKD1 inh: 2

(cont.)
Results for COc1ccc(C(=O)NCc2nnc(SCC(=O)Nc3cccc(C(F)(F)F)c3)o2)cc1OC ?
HSV replic up: inactive; RGS16-Gao HTS: 99; GALR2 agonist: -1.6; PKD1 inh: -6; Insulin prom inh: 26; Insulin prom inh cell count: 74; HSV replic up primary fold: 0.85

What do the screens show for `O=c1oc(-c2ccccc2NS(=O)(=O)c2ccc3ccccc3c2)nc2ccccc12`?
HSV replic up: inactive; RGS16-Gao HTS: 173; GALR2 agonist: 0.2; PKD1 inh: -12; Insulin prom inh: -8; Insulin prom inh cell count: 43; HSV replic up primary fold: 1.1

What do the screens show for `CC1=NN(c2ccc(C)c(C)c2)C(=O)/C1=C/c1ccc2c(c1)n(C)c(=O)n2C`?
HSV replic up: inactive; RGS16-Gao HTS: 102; GALR2 agonist: -0.7; PKD1 inh: -3; Insulin prom inh: -46; Insulin prom inh cell count: 166; HSV replic up primary fold: 0.98

How did Cc1onc(-c2ccccc2Cl)c1C(=O)OCC(=O)N1CCCc2ccccc21 do in these assays?
HSV replic up: inactive; RGS16-Gao HTS: 105; GALR2 agonist: -3.5; PKD1 inh: -2; Insulin prom inh: -11; Insulin prom inh cell count: 85; HSV replic up primary fold: 0.97

How did COCCNC(=O)CN(C(=O)Cn1nnc2ccccc21)c1cccc(C)c1C do in these assays?
HSV replic up: inactive; RGS16-Gao HTS: 98; PKD1 inh: 8; HSV replic up primary fold: 0.78

How did CCn1c(-c2ccccc2Cl)nn(CC(=O)Nc2ccccc2C)c1=S do in these assays?
HSV replic up: inactive; RGS16-Gao HTS: 99; GALR2 agonist: 0.5; PKD1 inh: 3; HSV replic up primary fold: 1

How did COC(=O)Cc1ccc(NC(=O)c2ccc(NC(=O)c3ccco3)cc2)cc1 do in these assays?
HSV replic up: inactive; RGS16-Gao HTS: 98; PKD1 inh: 0; Insulin prom inh: 25; Insulin prom inh cell count: 77; HSV replic up primary fold: 0.98

What do the screens show for `c1ccc(C(c2ccccc2)N2CCN(C(c3ccccn3)c3nnnn3C3CCCC3)CC2)cc1` (configuration not stated)?
HSV replic up: inactive; RGS16-Gao HTS: 100; PKD1 inh: -3; Insulin prom inh: -4; Insulin prom inh cell count: 49; HSV replic up primary fold: 1.1

Results for COc1ccc(S(=O)(=O)N2CCC(NC(=O)C(Cc3cccc(OC)c3OC)NC(C)=O)CC2)cc1 (configuration not stated) ?
HSV replic up: inactive; RGS16-Gao HTS: 80; PKD1 inh: -6; Insulin prom inh: 24; Insulin prom inh cell count: 131; HSV replic up primary fold: 0.89

What do the screens show for `Cc1cc(C)nc(SCc2ccc(C(=O)N/N=C/C3CCCCC3)cc2)n1`?
HSV replic up: inactive; RGS16-Gao HTS: 108; GALR2 agonist: -1.1; PKD1 inh: -10; HSV replic up primary fold: 0.8

How did CN1CCN(C(c2ccc(F)cc2)c2nnnn2Cc2cccs2)CC1 (configuration not stated) do in these assays?
HSV replic up: inactive; RGS16-Gao HTS: 103; GALR2 agonist: -0.4; PKD1 inh: -9; HSV replic up primary fold: 0.96

What do the screens show for `CCOC(=O)/C(C#N)=C/c1cn(CCC(=O)O)nc1-c1ccccc1`?
HSV replic up: inactive; RGS16-Gao HTS: 167; GALR2 agonist: -0.7; PKD1 inh: 0; HSV replic up primary fold: 1

How did CC(=O)NC1=C(NC2CCS(=O)(=O)C2)C(=O)c2ccccc2C1=O (configuration not stated) do in these assays?
HSV replic up: inactive; RGS16-Gao HTS: 174; GALR2 agonist: -1.1; PKD1 inh: 1; HSV replic up primary fold: 1

How did Nc1ccc(NC2C[C@@H](C(=O)O)NC2=O)cc1 (some centres not stated) do in these assays?
HSV replic up: inactive; RGS16-Gao HTS: 98; PKD1 inh: -2; HSV replic up primary fold: 0.91

What do the screens show for `CCOc1cc(/C=C2\NC(=S)N(c3c(C)n(C)n(-c4ccccc4)c3=O)C2=O)ccc1O`?
HSV replic up: inactive; RGS16-Gao HTS: 130; GALR2 agonist: -1.1; PKD1 inh: -3; Insulin prom inh: -16; Insulin prom inh cell count: 90; HSV replic up primary fold: 1.3

Results for CC(C)N(O)C(=O)NC(C)(C)C ?
HSV replic up: inactive; RGS16-Gao HTS: 100; GALR2 agonist: -1.3; PKD1 inh: -4; Insulin prom inh: 36; Insulin prom inh cell count: 76; HSV replic up primary fold: 0.89

What do the screens show for `CC1CCN(CCNC(=O)C2CCCN(S(=O)(=O)c3cccc4nonc34)C2)CC1` (configuration not stated)?
HSV replic up: inactive; RGS16-Gao HTS: 107; GALR2 agonist: 1.1; PKD1 inh: 2; Insulin prom inh: -3; Insulin prom inh cell count: 105; HSV replic up primary fold: 1.1

How did Cc1[nH]c2ccccc2c1/C=N/Nc1nc(N2CCCCC2)nc(N2CCCCC2)n1 do in these assays?
HSV replic up: inactive; RGS16-Gao HTS: 112; GALR2 agonist: 1.3; PKD1 inh: 1; Insulin prom inh: -13; Insulin prom inh cell count: 66; HSV replic up primary fold: 0.92

Results for CCOc1ccc(NC(=O)C(c2ccccn2)N(C(=O)CCl)c2ccc(F)cc2)cc1 (configuration not stated) ?
HSV replic up: inactive; RGS16-Gao HTS: 94; GALR2 agonist: -2.1; PKD1 inh: 2; Insulin prom inh: 13; Insulin prom inh cell count: 100; HSV replic up primary fold: 0.96

How did CCCN(CC(=O)Nc1c(C)cccc1CC)C(=O)SCC do in these assays?
HSV replic up: inactive; RGS16-Gao HTS: 111; GALR2 agonist: -3.5; PKD1 inh: -7; Insulin prom inh: 0; Insulin prom inh cell count: 76; HSV replic up primary fold: 0.87

Fetched by compound from above:
Results for CC(C)N(O)C(=O)NC(C)(C)C ?
HSV replic up: inactive; RGS16-Gao HTS: 100; GALR2 agonist: -1.3; PKD1 inh: -4; Insulin prom inh: 36; Insulin prom inh cell count: 76; HSV replic up primary fold: 0.89

What do the screens show for `CC1CCN(CCNC(=O)C2CCCN(S(=O)(=O)c3cccc4nonc34)C2)CC1` (configuration not stated)?
HSV replic up: inactive; RGS16-Gao HTS: 107; GALR2 agonist: 1.1; PKD1 inh: 2; Insulin prom inh: -3; Insulin prom inh cell count: 105; HSV replic up primary fold: 1.1
